Screens deposited in PubChem by National Center for Advancing Translational Sciences (NCATS).
VACV Venus inh – vaccinia inhibition (Venus reporter). hit rate 0.46% among 330,000. Potency, µM (top dose mostly 36.5 µM), for inactives: at the top dose activity change, negative = inhibition, usual class: inhibitors. AID 720580. Vaccinia virus Venus reporter expression, fluorescence; active means well fitted inhibition curve with a large enough effect; inconclusive means small, poorly fitted or top-dose-only effect; inactive means no such curve, though single readings can be large or run the other way; tested in A549 cells; further: nearly all actives have a fitted effect of over 30% in size; inactives centre near -10
Vaccinia mCherry – vaccinia inhibition (mCherry reporter). Vaccinia virus mCherry reporter infection, fluorescence; about a quarter of the inactives have no number. Potency, µM (highest dose often 36.5 µM), inactives show at the top dose activity change, negative = inhibition, actives largely listed as inhibitors. hit rate 0.63% among 310,000; active = well fitted inhibition curve with a large enough effect; inconclusive = small, poorly fitted or top-dose-only effect; inactive = no such curve, though single readings can be large or run the other way; tested in A549 cells; further: nearly all actives have a fitted effect of over 35% in size; inactives centre near -10
* = called active by the depositor; i = inactive; ? = inconclusive; / = no result given; [ ] = another dose, or the depositor's remark. On the % scale 0 is the no-effect control and ±100 the full control effect; potency means the concentration at half of the fitted maximal effect. Outcome played no part in choosing rows (roughly 0.88% active in at least one column).

The opening 2 compounds, to show the layout:
canonical_smiles	VACV Venus inh	Vaccinia mCherry
CC1CCC(NC(=O)Cn2ncc3c4ccccc4n(Cc4ccc(F)cc4)c3c2=O)CC1 (configuration not stated)	-25.8%	-11.1%
COCCNC(=O)CN(c1ccc(OC)c(OC)c1)S(=O)(=O)c1ccc(C)cc1	-12.8%	/

Results, repeating the preview:
canonical_smiles	VACV Venus inh	Vaccinia mCherry
CC1CCC(NC(=O)Cn2ncc3c4ccccc4n(Cc4ccc(F)cc4)c3c2=O)CC1 (configuration not stated)	-25.8%	-11.1%
COCCNC(=O)CN(c1ccc(OC)c(OC)c1)S(=O)(=O)c1ccc(C)cc1	-12.8%	/
CCOc1ccccc1Oc1ccc(C(F)(F)F)cn1	-9.2%	/
O=C(Nn1cnc2ccccc2c1=O)c1ccc(Br)cc1	-12.1%	i
O=C(O)c1cccc2c1C(=O)c1ccccc1C2=O	-7.9%	-29.3%
O=S(=O)(NC1CCCC1)c1ccc(-n2cnnn2)cc1	-14.6%	-14.1%
CC1CCCC(C)N1/N=C/c1ccc(Cl)cc1 (configuration not stated)	7.5%	5.3%
O=C(O)CCc1n[nH]c(=S)[nH]c1=O	1.1%	i
O=C(c1ccoc1)N1CCN(c2cc(-c3ccncc3)nc3cc(-c4cccc(Cl)c4)nn23)CC1	-18.1%	-0.9%
CC(C)c1ccc(NC(=O)C2CC(=O)Nc3nc4ccccc4n32)cc1 (configuration not stated)	-5.6%	-5.1%
COc1ccc(OC)c(NC(=O)CN2C(=O)c3ccccc3Sc3ccc(C(=O)N4CCCC4)cc32)c1	-10.8%	-10.9%
Cc1c(C(=O)N/N=C/c2ccc(O)cc2)sc(=S)n1C	-5.1%	i
O=C(CSCc1ccccc1Cl)NN1C(=O)c2ccccc2C1=O	-3.3%	-6.5%
CCOc1ccc(NC(=O)CSc2nnc(-c3ccoc3C)n2CC2CCCO2)cc1 (configuration not stated)	-15.0%	-4.7%
COc1ccc(C(=O)N(Cc2cc3cccc(C)c3nc2N(C)C)CC2CCCO2)cc1 (configuration not stated)	10.8%	-10.9%
COc1ccc2c(=O)c(-c3ccc(OC)c(OC)c3)coc2c1	1.1%	-5.3%
Fc1ccc(-c2n[nH]c(=S)n2/N=C/c2c[nH]c3ccccc23)cc1	-6.3%	-10.7%
COc1ccc([N+](=O)[O-])cc1NS(=O)(=O)c1ccc(C)cc1	-16.7%	-3.1%
CCc1ccc(-c2cc(C)no2)cc1S(=O)(=O)Nc1cc(OC)c(OC)c(OC)c1	-11.6%	-12.0%
CCN(CC)CCC(=O)N1c2ccccc2Sc2ccc(Cl)cc21	-20.7%	-10.7%
CCOc1ccc(C(NC(=O)c2cc(OC)c(OC)c(OC)c2)c2cc(Cl)c3cccnc3c2O)cc1 (configuration not stated)	?	10µM*
COc1ccc(/C=N/Nc2cc(C)nc(-n3nc(C)cc3C)n2)c(OC)c1	?	6.31µM*
O=C(Nc1nnc(SCc2ccccc2Cl)s1)c1cccc([N+](=O)[O-])c1	-14.6%	-5.2%
CCOc1ccc(CNC(=O)c2ccc3c(c2)N(Cc2ccccc2)CCS3)cc1	-22.8%	-24.4%
CCOc1ccccc1OCC(=O)Nc1cc(S(=O)(=O)N2CCCCC2)ccc1OC	-0.1%	-13.5%
COc1ccc(C(CCNC(C)c2ccccc2)C(C)C)cc1 (configuration not stated)	-24.4%	-15.1%
COc1ccccc1CC(=O)N1CCN(c2ccc(F)cc2)CC1	-11.1%	-21.0%
Cn1ccnc1Sc1ccc(C=O)cc1[N+](=O)[O-]	-4.8%	-3.6%
Cc1ccc(CNC(=O)c2nnn(-c3cccc(C)c3)c2N)cc1	-16.5%	-27.1%
COC(=O)NNC(=O)COc1ccc(Br)c(C)c1	-10.5%	-12.8%

Overlap with the part before: 6 compounds, followed by the next part.
canonical_smiles	VACV Venus inh	Vaccinia mCherry
CCOc1ccccc1OCC(=O)Nc1cc(S(=O)(=O)N2CCCCC2)ccc1OC	-0.1%	-13.5%
COc1ccc(C(CCNC(C)c2ccccc2)C(C)C)cc1 (configuration not stated)	-24.4%	-15.1%
COc1ccccc1CC(=O)N1CCN(c2ccc(F)cc2)CC1	-11.1%	-21.0%
Cn1ccnc1Sc1ccc(C=O)cc1[N+](=O)[O-]	-4.8%	-3.6%
Cc1ccc(CNC(=O)c2nnn(-c3cccc(C)c3)c2N)cc1	-16.5%	-27.1%
COC(=O)NNC(=O)COc1ccc(Br)c(C)c1	-10.5%	-12.8%
CN(C(=O)c1cc2c(=O)n3ccccc3nc2n1C)C1CCCCC1	-12.3%	-7.7%
COc1ccccc1C(=O)c1cn(CC(=O)Nc2ccccc2F)c2nc(C)ccc2c1=O	6.5%	4.8%
O=C(Nc1cccc(OC(=O)N2CCOCC2)c1)N1CCOCC1	-18.8%	-17.3%
O=[N+]([O-])c1ccc(S(=O)(=O)NCC2COc3ccccc3O2)cc1 (configuration not stated)	-2.3%	?
O=C(CSc1c(Cl)cccc1Cl)N1CCC(c2nc3ccccc3s2)CC1	?	/
COc1ccc(-n2c(C)c(C(C)=O)c3cc(OC(=O)c4ccc(C)cc4)ccc32)cc1	-0.4%	-2.0%
COc1ccc(CNC(=O)C2CCN(S(C)(=O)=O)CC2)cc1	-9.1%	-2.7%
Cc1csc(SCC(=O)NCCc2ccc(Cl)cc2Cl)n1	-6.7%	-13.3%
Cc1ccc(Cc2nc3ccccc3nc2SCC(=O)N2CCCCC2C)cc1 (configuration not stated)	-14.5%	-8.2%
CCc1c(O)nc(SCC(=O)Nc2ccc(Br)cc2)n(-c2ccc(C)cc2)c1=O	-0.8%	-6.8%
CCOC(=O)c1c(C)n(-c2ccccc2)c2ccc(OC(=O)c3cccc(C)c3)cc12	4.5%	-8.5%
CC(=O)NCCC(=O)Nc1ccc(F)cc1C	-8.7%	/
CCc1ccccc1NC(=O)Cc1cn(C)c2ccccc12	0.3%	-7.5%
C=CCN(CC=C)Cc1cc(=O)oc2cc(OC)ccc12	-0.7%	35.1%[activator]
N#Cc1ccc(Cl)cc1NC(=O)COC(=O)c1ccc(S(=O)(=O)N2CCCC2)cc1	-13.5%	-1.4%
CCOC(=O)Cn1c(=O)oc2cc(S(=O)(=O)N3CCN(c4ccc(F)cc4)CC3)ccc21	-2.0%	i
Brc1ccc(-n2nc(-c3ccccc3)c3cnc4cc5c(cc4c32)OCO5)cc1	6.9%	-13.3%
Fc1cccc(NC(=S)N2CCn3cccc3C2c2cccnc2)c1 (configuration not stated)	-5.4%	-11.5%
CC1=CC(C)(C)NC(=S)N1c1ccccc1	-11.9%	-4.9%
COc1ccc(CN(CC(=O)NCCC(C)C)C(=O)CCC(=O)Nc2nccs2)cc1	-6.1%	-4.4%
COc1ccc(OC)c(NC(=O)c2ccc3c(c2)C(=O)N(CC2CCCO2)C3=O)c1 (configuration not stated)	0.8%	i
CN1N=C2c3ccccc3CCC2C1c1ccc(F)cc1 (configuration not stated)	-8.4%	-12.9%
Cc1ccc(C)c(N2CCN(S(=O)(=O)c3ccc4[nH]c5c(c4c3)CCCCC5)CC2)c1	2.9%	-12.3%
C/C(=N/OCO/N=C(\C)c1ccc(F)cc1F)c1ccc(F)cc1F	-12.6%	i
COc1ccc(OC)c(S(=O)(=O)N(C)CC(=O)Nc2ccccc2OC)c1	-3.7%	/
COc1cccc(C(=O)NCC(=O)OCc2cc(=O)n3nc(C)sc3n2)c1	-1.4%	-11.7%
Cc1ccc(-c2ccccc2[C@@H]2C[C@H]3CN(C)C(=O)[C@]34CCCN24)o1	-11.9%	-19.1%
CC(C)(C)C(=O)NCCCNc1ccc([N+](=O)[O-])cc1	4.9%	6.1%
CCN1CCCC1CNc1ccc(S(C)(=O)=O)cc1[N+](=O)[O-] (configuration not stated)	-6.7%	-10.6%
CC(C)(C)c1ccc(S(=O)(=O)NC(=O)C2(C)CCN2C(=O)CC2CCCC2)cc1 (configuration not stated)	6.3%	i
CCCCOc1ccc(N(CC(=O)NCC2CCCO2)C(=O)CCC(=O)Nc2nccs2)cc1 (configuration not stated)	-4.9%	-14.6%
O=C(N/N=C\C=C\c1ccc2c(c1)OCO2)c1ccc(F)cc1	-10.1%	-24.8%
CN(C)CCCNC(=O)c1cccc(-c2ccc3nccn3c2)c1	-6.1%	24.0%
Cc1sc(N=Nc2ccc(N(C)C)cc2)[n+]([O-])c1C	-8.2%	-5.3%
CC1CN(S(=O)(=O)c2ccc(C(=O)Nc3sccc3C(N)=O)cc2)CC(C)O1 (configuration not stated)	-17.1%	?
CC[C@@]1(c2ccccc2OC)C(=O)N(C(=O)OC)N1C(=O)OC	-11.8%	i
O=C(c1ccccc1)C1CCN(C(=O)c2c(F)cccc2F)CC1	-9.8%	-9.2%
OCCN1CCN(CC(O)COCc2ccc3c(c2)OCO3)CC1 (configuration not stated)	-14.0%	/
COc1ccccc1NC(=S)NNC(=O)c1cc(C)n(C)n1	1.8%	-4.8%
Cc1ccccc1Cn1c2ccccc2c2cnn(CC(=O)NC3CCCCCC3)c(=O)c21	-10.0%	-9.6%
COCC(=O)N(C)[C@H]1C[C@H]2c3cc(Oc4ccccc4C)ccc3CCN2C(=O)[C@H]1[C@H](C)O	0.0%	i
COc1ccccc1NC(=O)N1CCN(c2nnc(C)c3c(C)n(-c4ccc(Cl)cc4)nc23)CC1	?	?
CC1(C)Cc2c(c(-c3ccco3)[nH]c(=O)c2C#N)CS1	14.0%	-9.0%
C=CCOc1ccc(CNn2nnnc2N)cc1	3.9%	-10.0%
O=C(CSc1nnc(CNC(=O)c2c(F)cccc2Cl)o1)NC1CCCCC1	-5.2%	-15.4%
O=c1c(S(=O)(=O)c2ccccc2)cn(Cc2ccc(F)cc2)c2cc(N3CCCCC3)c(F)cc12	-5.9%	-6.8%
CC1CCC2(CC1)NC(=O)N(CC(=O)NCc1ccc(Cl)cc1)C2=O (configuration not stated)	-16.1%	?
COc1ccc(N=C2c3ccccc3-c3ccc([N+](=O)[O-])cc32)cc1	-12.9%	-14.1%
CC[C@H](C)[C@H](NC(N)=O)C(=O)NCCc1ccc(OC)cc1	-0.6%	i
Fc1ccc(Br)cc1C1C=C(c2ccc(Br)cc2)Nc2nnnn21 (configuration not stated)	-17.2%	-12.1%
CC(=O)c1cccc(NC(=O)Cn2c(=O)c(CNc3ccc(C)cc3)cc3cc4c(cc32)OCCO4)c1	7.1%	-2.6%
COC(=O)c1ccc(NC(=O)c2cc(-c3ccccn3)nc3ccccc23)cc1	-10.6%	-13.4%
CC1CCC(C(C)(C)O)CC2=C1CCC2C (configuration not stated)	0.6%	-5.9%
Cc1ccc(S(=O)(=O)NNC(=O)c2ccc(C(=O)N(c3ccccc3)c3ccccc3)cc2)cc1	-9.8%	-16.8%
COc1cc(Nc2nc(SCc3ccccc3F)nc3ccccc23)cc(OC)c1	-13.3%	-15.0%
COc1ccc(OC)c(NC(=O)C(CCS(C)(=O)=O)NC(C)=O)c1 (configuration not stated)	-3.9%	2.0%
CC1(C)O[C@@H]2[C@H](O1)[C@@H](CO)O[C@H]2n1ccc(=O)[nH]c1=O	-11.9%	i
O=C(CSc1nnc(-c2ccccc2)o1)N1CCOCC1	-6.2%	-13.4%
CC1=C(C(=O)N(C)C)CC(CC(=O)NC2CCCCC2)C(=O)N1Cc1ccc(C(C)(C)C)cc1 (configuration not stated)	-24.5%	i
COc1ccc(CNC(=O)CN(c2ccc(C(C)C)cc2)S(=O)(=O)c2c(C)nn(C)c2C)cc1	-8.5%	-13.0%

Next section
canonical_smiles	VACV Venus inh	Vaccinia mCherry
Cc1nn(C)c(C)c1/C=C(/C(=O)C(C)(C)C)n1cncn1	-1.1%	-14.5%
O=C(CSc1nc(O)cc(=O)n1-c1ccccc1)Nc1nc2ccccc2s1	-0.1%	-10.3%
CC(C)(C)C(=O)NC(=S)NNC(=O)C(c1ccccc1)c1ccccc1	-18.8%	?
CCCCNC(=O)C1C(c2ccccc2)=Nc2ccccc2N1C(=O)c1ccc(C(F)(F)F)cc1 (configuration not stated)	?	-1.5%
CCOC(=O)c1cccc(C2=C(CNC(C)=O)[C@H]3CC[C@@H](C2)N3Cc2ccccc2)c1	-16.4%	-21.6%
Cc1cnc(C(=O)OCC(=O)c2ccc(C3CCCCC3)cc2)cn1	-7.2%	-8.5%
CC1CN(CC(=O)NCc2ccc(Cl)cc2)CC(C)O1 (configuration not stated)	-17.2%	-12.4%
COc1ccc(CCNC(=O)CSC2=NS(=O)(=O)c3cc(Cl)ccc3N2)cc1OC	-9.5%	-28.5%
CN(CC(=O)Nc1cccc(F)c1)C(=O)CCCc1cccs1	-10.8%	-17.6%
COc1ccc(OC)c2sc(N3CCN(C(=O)C(C)(C)C)CC3)nc12	-2.5%	-14.0%
CCc1ccc(NC(=S)Nc2cc(C(=O)O)ccc2N2CC3CC(C2)c2cccc(=O)n2C3)cc1 (configuration not stated)	4.0%	i
Cc1ccc2oc(C(=O)Nc3ccc(S(=O)(=O)N4CCCC(C)C4)cc3)cc(=O)c2c1 (configuration not stated)	-8.9%	-5.6%
CCCNC(=S)Nc1ccc(Nc2ccccc2)cc1	-17.9%	-25.2%
